VACV E9 pol inh = inhibitors of vaccinia virus processive DNA synthesis (E9 polymerase) | normalized absorbance, % (no concentration beside the values) | hit rate 0.94% among 46,000 | in vitro processive DNA synthesis, absorbance read-out; stronger effect = lower value; some inactives read as strong as hits;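 active = replicate mean up to 90% and picked by the depositor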;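 also: 100% = median of the test wells of a plate; 100 nL library stock went into each well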
An asterisk follows results filed as active; & = joins results of further samples. These rows are one share of the data. The share of hits here may be higher or lower than overall.

SMILES	VACV E9 pol inh
OC(CNCc1ccccc1)Cn1c2ccc(Cl)cc2c2cc(Cl)ccc21 (stereo not given)	99.8
CC(=O)Nc1ccc(-c2cc(C(=O)O)nc3n[nH]c(-c4ccccc4)c23)cc1	100.6
CN1C(=O)CN(C2CCCCC2)C1=O	108.4
O=C(/C=C\c1ccccc1)Nc1ccc(-c2cn3cccnc3n2)cc1	94.4
COc1ccc(-c2nc(CS(=O)(=O)c3ccc(F)cc3)no2)cc1OC	100.4
CN(Cc1ccccc1)S(=O)(=O)c1ccc(C(=O)Nc2ccc(-c3nc4ccccc4[nH]3)cc2)cc1	100.5
COC(=O)C1=C(C)NC(C)=C(C#N)C1c1cccs1 (stereo not given)	100.6
Cc1cc(O)c(C(=O)/C=C/N(C)C)c(=O)o1	99.4
O=C(COCC(=O)c1ccccc1)Sc1nc2ccccc2o1	100.3
COc1ccc(S(=O)(=O)n2nc(-n3c(C)ccc3C)c3c(F)cccc32)cc1OC	88.4
Clc1snnc1CN1CCOCC1	101.1
CN(CC(=O)O)c1ncc(-c2nnnn2-c2ccccc2)c(-c2ccccc2Cl)n1	103.6
CC[C@@H]1/C=C(\C)C[C@H](C)C[C@H](OC)[C@H]2O[C@@](O)(C(=O)C(=O)N3CCCC[C@H]3C(=O)O[C@H](/C(C)=C/[C@@H]3CC[C@@H](O)[C@H](OC)C3)[C@H](C)[C@@H](O)CC1=O)[C@H](C)C[C@@H]2OC	98.7
OC(COc1ccc(Cl)cc1)CN1CCC(Cc2ccccc2)CC1 (stereo not given)	86.9
O=C(O)c1c2c(nc3ccc(S(=O)(=O)N4CCC(C(=O)NC5CCCC5)CC4)cc13)CCCCC2	101.2
CNc1ccc2oc(C[C@@H]3OC4(CC[C@@H]3C)O[C@H](C(C)C(=O)c3ccc[nH]3)[C@H](C)C[C@H]4C)nc2c1C(=O)O (stereo not given in full)	101.1&99.4
COC(=O)c1cccc(C(=O)Oc2ccc(F)cc2)n1	94.9
Cc1nc(C(N)=O)c(N)n1CCO	98.6
Cc1ccc(S(=O)(=O)NCCSc2ncccn2)cc1	99.7
NNC(=O)c1ccc2c(=O)[nH][nH]c(=O)c2c1	96.5
CCCCC(CC)CSc1nc2ncccc2[nH]1 (stereo not given)	101.6
N#C/C(=C/c1ccc2c(c1)OCO2)c1ccc(Cl)cc1Cl	100.2
C=CCNC(=O)C1CC(=O)N(c2ccc(OCC(=O)N3CCCC3)cc2)C1 (stereo not given)	99.6
Cc1ccccc1NC(=O)Cn1nnc2ccccc21	100.8
Cc1ccccc1NC(=O)CC(C(=O)O)N(C)C (stereo not given)	100.3
Cc1nccc2[nH]c(=O)c(C(=O)NC(C)CCc3ccccc3)cc12 (stereo not given)	106.2
Cc1ccc2c(c1)NC(C(F)(F)F)(C(F)(F)F)NC2=O	97.1
CC1(C)S[C@@H]2[C@H](NC(=O)[C@@H](N)c3ccc(O)cc3)C(=O)N2[C@H]1C(=O)O	104.0
Oc1ccccc1-c1cc(-c2ccccc2O)nc(-c2ccccc2)n1	99.4
Cc1oc2nc(SCC(=O)N3CCCCC3)nc(N)c2c1C	100.8

In the list so far, two contain a cyano group.
SMILES	VACV E9 pol inh
COC(=O)C1=C(C)NC(C)=C(C#N)C1c1cccs1 (stereo not given)	100.6
N#C/C(=C/c1ccc2c(c1)OCO2)c1ccc(Cl)cc1Cl	100.2

Continued:
SMILES	VACV E9 pol inh
O=C1c2ccccc2C(=O)N1CCC1=NCCc2ccccc21	102.3
Cc1ccc(NC(=O)C2(c3ccccc3)CCCC2)nc1	99.9
CC(C)(C)C(=O)Nc1cc(C(F)(F)F)ccc1-n1ccnc1	104.7
Cc1sc(-n2cccc2)c(C(=O)O)c1C	103.1
Cc1ccccc1C1C(C#N)=C(SCc2ccccc2)NC(=O)C1C#N (stereo not given)	96.2
Cc1cc(C)n(C(=O)NC2CCCCC2)n1	106.5
O=C(c1ccc2sc(=S)[nH]c2c1)N1CCCC1	100.2
O=C(Cn1nc(Cc2cccnc2)c2ccccc2c1=O)N1CCCC1	103.2
CCOc1ccc(C(=O)NCCn2ccc3ccccc32)cc1	96.6
O=c1cc(CO)oc(CN2CCOCC2)c1O	96.9
Oc1c(/C=C2\C=Nc3ccccc32)sc(=Nc2ccccc2)n1C1CCCC1	99.9
COc1ccc(CC2S/C(=N/c3ccccn3)NC2=O)cc1 (stereo not given)	100.6
Cc1ccccc1-c1nn[nH]n1	98.7
COC(=O)c1ccccc1NC(=O)COC(=O)c1cc2ccccc2o1	99.8
Cn1c(C2CC2)nc2ccccc21	89.2
Cc1ccc(/C=C/C(=O)O)cc1S(=O)(=O)N1CCCCC1	77.3
O=C(O)C1(S(=O)(=O)c2ccc(Cl)cc2)CCCC1	93.9
C=Cc1c(C)c2cc3[nH]c(cc4nc(cc5nc(cc1[nH]2)C(C)=C5CCC(=O)O)C(CCC(=O)O)=C4C)c(C)c3C=C	21.7*
Cc1cccc(C(=O)Cc2ccccc2O)c1	97.0
CCOC(=O)C1=C(C(C)c2ccccc2)NC(=O)NC1C (stereo not given)	111.6
O=C(OCc1ccccc1)c1ccc2c(c1)OCO2	98.0
O=S(=O)(N1CCCCC1)N1CCCCC1	121.9
O=C(CSc1cn(CCNC(=O)c2ccccc2)c2ccccc12)Nc1nccs1	100.5
O=C(c1ccncc1)N1C2C=CC(C2)C1(C(F)(F)F)C(F)(F)F (stereo not given)	100.3
COc1ccc(/C=C2/C(=N)N3N=C(Cc4ccccc4)SC3=NC2=O)cc1OC	97.5
O=C(NCc1ccco1)c1cc(-c2ccc(F)cc2)no1	84.2
O=C1c2cccnc2C(=O)N1Cc1ccc(S(=O)(=O)NCc2ccccc2)cc1	94.1
CCCNC(=O)NS(=O)(=O)c1ccc(Cl)cc1	100.0
O=C(/C=C/C=C/c1ccccc1)CC1(O)C(=O)Nc2ccc(Br)cc21 (stereo not given)	99.8
N#CC1=C(SCc2ccccc2)NC2=C(C(=O)CCC2)C1c1ccc(Cl)cc1 (stereo not given)	101.9
Cc1cccc(NC(=O)c2coc3ccccc3c2=O)n1	101.0
O=C(NCCc1ccccc1)c1cnc2ccccn2c1=O	88.0
CC(=O)NC(N1CCCC1=O)(C(F)(F)F)C(F)(F)F	101.2
O=C(Nc1ccccc1)c1cnc[nH]1	100.3
Cc1nc(N)nc(Sc2ccc(Cl)cc2)c1Cl	102.0
Cn1c2ccccc2c2cnn(CC(=O)O)c(=O)c21	104.8
CC(C)(C)OC(=O)N1CCCN(C(=O)c2cccnc2Oc2ccc(Cl)cc2)CC1	104.9
Cc1cc(F)ccc1NS(=O)(=O)c1cc(Br)cnc1N	98.9
O=S(=O)(NCc1nc2ccccc2[nH]1)c1ccc(Cl)cc1	94.0
O=C(CSC1CCCCC1)N1CCc2ccccc21	99.8
O=C1/C(=C/c2ccc(O)cc2)SC(=S)N1CC1CCCO1 (stereo not given)	100.0
CCOC(=O)N1CCC(NC(=O)c2cc(S(=O)(=O)N(CC)CC)ccc2F)CC1	99.0
Cc1cc(OC(=O)c2ccc(Br)cc2)no1	99.5
CCOC(=O)c1c(SC)n(-c2ccccc2)c(=S)n(-c2ccccc2)c1=O	100.6
NC(=O)COC(=O)c1ccc(Cl)c(N)c1	91.1

Laid out differently: 6 of the compounds above
smiles | VACV E9 pol inh
O=C(CSC1CCCCC1)N1CCc2ccccc21 | 99.8
O=C1/C(=C/c2ccc(O)cc2)SC(=S)N1CC1CCCO1 (stereo not given) | 100.0
CCOC(=O)N1CCC(NC(=O)c2cc(S(=O)(=O)N(CC)CC)ccc2F)CC1 | 99.0
Cc1cc(OC(=O)c2ccc(Br)cc2)no1 | 99.5
CCOC(=O)c1c(SC)n(-c2ccccc2)c(=S)n(-c2ccccc2)c1=O | 100.6
NC(=O)COC(=O)c1ccc(Cl)c(N)c1 | 91.1

Next section.
SMILES	VACV E9 pol inh
O=C(COc1ccc2ccccc2c1Br)NCc1ccccc1	99.1
Clc1ccc2nc(Cl)cc(-c3ccccc3)c2c1	100.1
O=C(Nc1ccc2c(c1)OCO2)c1ccncc1	101.2
NC(=O)c1cccn1-c1ncc(C(F)(F)F)cc1Cl	99.2
NC(=O)COc1cccc2cccnc12	88.4
CNC(=S)N1N=C(c2ccccc2)CC1c1cc2ccc(C)cc2nc1Cl (stereo not given)	99.2
Cc1[nH]nc(-c2cccs2)c1C(=O)NN	99.5
O=C(NC1CCCCC1)c1cccc(Cn2cc(Cl)cn2)c1	99.9
O=S(=O)(c1ccsc1)N1CC=C(c2ccccc2)CC1	109.8
Cc1cc(C)cc(NC(=O)Cc2cccs2)c1	99.3
O=C(CSCCc1ccccn1)Nc1cccnc1	106.6
O=C1OC(=Nc2ccccc2)c2ccccc21	103.4
O=C1NCC(=Nc2ccccc2)C(=O)N1	99.9
O=S1(=O)CC(O)C(S(=O)(=O)c2ccc(Cl)cc2)C1 (stereo not given)	101.1
COC(=O)c1c(NC(C)=O)c2c(C)c(C)sc2n1Cc1nc(-c2cccs2)oc1C	103.0
CCOC(=O)C1=C(SCC(=O)Nc2ccccc2)NC(=O)C(C#N)C12CCCCC2 (stereo not given)	99.5
O=S(=O)(c1cc(Cl)ccc1Cl)N1CCNCC1	100.3
CC1CCCN(CCC(=O)c2ccc(Br)cc2)C1 (stereo not given)	99.8
O=C(OC(C(=O)Nc1cc(C(F)(F)F)ccc1Cl)c1ccccc1)c1cccnc1 (stereo not given)	99.4
O=C(NC1CCCC1)c1nc(-c2ccc(Cl)cc2)n2c1CCCCC2	103.1
CC1CC(C)CN(C(=O)C(Cc2ccccc2)NS(=O)(=O)c2cccc3nsnc23)C1 (stereo not given)	92.7
Nc1ccc(Oc2ncc(C(F)(F)F)cc2Cl)cc1	106.3
COc1ccc2cc(CCNC(=O)C3CC3)c(=O)[nH]c2c1	98.6
CC(C)N(C(=O)Cc1cccs1)C(C)C	88.9
Cc1ccc(NC(=S)NCC2CCN(C(C)c3ccccc3)C2)cc1 (stereo not given)	103.9
O=C(Nc1c(-c2cccs2)nc2ccccn12)C(c1ccccc1)c1ccccc1	94.1
COc1ccc2c(c1)c(=O)oc1c(C)c3occ(C)c3cc12	100.3
O=C(NCc1cccnc1)NC1(c2ccccc2)CC1	99.8
Cc1ncoc1C(=O)Nc1ccccc1C(F)(F)F	104.3
Cc1ccc(C(=O)Nc2cccc(-c3nc4ccccc4o3)c2)cc1	99.1

Reprinted at random: 5 entries already listed, in no set order.
SMILES	VACV E9 pol inh
O=C(NCc1cccnc1)NC1(c2ccccc2)CC1	99.8
Cc1ccc(NC(=S)NCC2CCN(C(C)c3ccccc3)C2)cc1 (stereo not given)	103.9
O=C(OC(C(=O)Nc1cc(C(F)(F)F)ccc1Cl)c1ccccc1)c1cccnc1 (stereo not given)	99.4
CC1CC(C)CN(C(=O)C(Cc2ccccc2)NS(=O)(=O)c2cccc3nsnc23)C1 (stereo not given)	92.7
CC(C)N(C(=O)Cc1cccs1)C(C)C	88.9

The list continues.
SMILES	VACV E9 pol inh
CCCCN1C(=O)C2ON(c3ccccc3)C(c3ccc(OC)cc3)C2C1=O (stereo not given)	94.5
Cc1ccc(C(=O)OCC2OC3C(Oc4c(C)c(=O)ncn43)C2OC(=O)c2ccc(C)cc2)cc1 (stereo not given)	100.8
O=c1[nH]c2ccccc2c2nc(-c3ccc(Cl)cc3)nn12	99.0
COc1ccc(CN=CC2C(=O)N(c3nc4ccccc4s3)N=C2C(F)(F)F)cc1 (stereo not given)	100.7
O=S(=O)(c1ccc(F)c(F)c1)N1CCN(C/C=C/c2ccccc2)CC1	100.7
Cc1ccc(CN2C(=O)C3CCCN3c3ncccc32)cc1 (stereo not given)	80.2
CCOC(=O)c1ccccc1NC(=S)N1CC(C)CC(C)C1 (stereo not given)	102.2
[N-]=[N+]=NCc1noc(-c2ccccc2)n1	100.0
CC(=O)Nc1cc(C(=O)NCCN(C)C)ccc1Sc1ccc(Cl)cc1	85.1
C=CCNc1nc2ccccn2c(=O)c1/C=C1\SC(=S)N(Cc2ccc3c(c2)OCO3)C1=O	99.7
CC1(C)C2CCC1(CS(=O)(=O)N1CCN(c3ccccc3F)CC1)C(=O)C2 (stereo not given)	99.8
COc1cc(C(=O)N(CCC#N)Cc2ccncc2)cc(OC)c1OC	96.2
Cc1ccc(N2CCCC2=O)cc1	112.1
Cc1ccc(-c2ccnc3nc(-n4cccc4)nn23)o1	99.4
CCCCC(=O)N1CC(=O)Nc2ccc(C)cc2C1c1ccccc1 (stereo not given)	106.7
CSc1nc2c(c(=O)n1Cc1ccccc1)C(C)(C)Cc1ccccc1-2	100.2
CN(C)Cc1c[nH]c2ccccc12	98.5
COc1ccc2c(c1)C(=O)C(C1(O)C(=O)Nc3ccccc31)CC2 (stereo not given)	99.5
O=C(Nc1nnc(SCc2ccccc2)s1)C1CC1	101.0
O=C(CC1NCCCNC1=O)Nc1cc(Cl)ccc1Cl (stereo not given)	106.3
Brc1ccc(OCCSc2ncccn2)cc1	100.0
Cn1cc(C(=O)c2cccc(Cl)c2)cc1/C=N\O	111.6
O=C(Oc1ccc(Cl)cc1Cl)c1ccc(Br)cc1	100.1
CC1CCCCN1C(=O)N1CCOCC1 (stereo not given)	100.0
CCCN1CCN(CCNC(=O)Nc2ccccc2OC)CC1	102.4
Cc1nc2c(=O)oc3ccccc3c2n1-c1ccccc1	100.0
CCCCCCCCCCOCCC(=O)O	97.6
COc1ccc(Br)cc1S(=O)(=O)NCCCN1CCOCC1	98.6
CSc1nc(N)nc2sc(C(=O)C34CC5CC(CC(C5)C3)C4)c(N)c12	100.8
COc1ccc(C(OC(=O)c2ccccc2)c2nccc3ccccc23)cc1 (stereo not given)	105.6
CC(OC(=O)c1c(F)cccc1F)C(=O)Nc1cc(Cl)cc(Cl)c1 (stereo not given)	105.2
CCCNC(=O)c1c(O)c2c([nH]c1=O)CCCC2	103.2
Cc1cc(C)n(C(=O)c2cc(C)[nH]n2)n1	104.4
O=C(N1CCCCCC1)C12CC3CC(CC(Cl)(C3)C1)C2	103.8
Cc1ccc(OCCCn2cc(/C=C3/C(=O)NC(=O)N(C4CCCCC4)C3=O)c3ccccc32)cc1	100.4
COc1ccc(CC2SC(N)=NC2=O)cc1 (stereo not given)	102.5
CCC(=O)N1CC(=O)Nc2ccc(F)cc2C1c1ccccc1 (stereo not given)	88.8
COc1ccc(C2CC(c3cccs3)=NN2C(=O)CSc2nc3ccccc3s2)cc1 (stereo not given)	100.0
O=C(CNc1cc(C(F)(F)F)ccc1N1CCOCC1)N1CCc2ccccc2C1	77.7

Assay outcomes deposited in PubChem BioAssay by ICCB-Longwood Screening Facility, Harvard Medical School.
